# MARV entry inh – Marburg virus entry inhibition | Marburg virus pseudotyped entry inhibition, cell reporter; control for the full effect not named in the record; about a third of the inactives were read at about 46 µM | Potency, µM (series often up to 37.8 µM), inactives show at the top dose activity change, negative = inhibition, most hits filed as inhibitors | 1.8% of 300,000 active; active = well fitted inhibition curve with a large enough effect; inconclusive = small, poorly fitted or top-dose-only effect, or effect the other way; inactive = flat fitted curve, though single readings scatter; tested in HEK293 cells; about a fifth of its hits are not listed in these tables; further: on the % scale 0 is the no-effect control and ±100 the full control effect; luciferase read-out
# 2A StopGo – lowers the luciferase signal of an FMDV 2A StopGo reporter. human cells with a luciferase reporter of 2A StopGo recoding; control for the full effect not named in the record. Potency, µM (highest dose often 57.9 µM), for the others: at the top dose signal change, negative = less light. 1.2% of 410,000 active; active = well fitted falling curve with a large enough effect; inconclusive = small, poorly fitted or top-dose-only effect; inactive = no such curve, though single readings can be large or run the other way; tested in HEK293T cells; further: on the % scale 0 is the no-effect control and ±100 the full control effect; nearly all actives have a fitted effect of over 45% in size; luciferase light after 4 h
# RE007 growth inh – less growth of the S. pombe RE007 Vpr strain; 0.21% of 360,000 active; S. pombe RE007 Vpr strain, BacTiter-Glo ATP luminescence, 24 h; control for the full effect not named in the record; Potency, µM (highest dose often 92.2 µM), for the others: at the top dose activity change, negative = less growth; active = well fitted falling curve with a large enough effect; inconclusive = small, poorly fitted or top-dose-only effect; inactive = no such curve, though single readings can be large or run the other way;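 further: on the % scale 0 is the no-effect control and ±100 the full control effect; nearly all actives have a fitted effect of over 50% in size; the assay follows cell death caused by Vpr and the record does not say whether a fall means rescue or toxicity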
#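 Fission yeast RE007 carrying one integrated HIV-1 vpr copy, seeded at OD 0.01 in PMG+AL medium with 23 nL pinned compound. Grown 24 h at 30 degrees; viability read by BacTiter-Glo luminescence after 5 min.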
# NS1 function inh – blocks influenza NS1 protein function; S. cerevisiae slowed by influenza A NS1, growth recovery by OD600; Potency, µM (series often up to 46.1 µM), inactives show at the top dose activity, positive = more growth; 0.4% of 270,000 active; AID 2326; active means well fitted rising curve with a large enough effect; inconclusive means small, poorly fitted or top-dose-only effect; inactive means no such curve, though single readings can be large or run the other way; further: nearly all actives have a fitted effect of over 50% in size
#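 Growth recovery, yeast-based: influenza A NS1 expressed in S. cerevisiae causes slow growth, and suppressors are detected by OD600. The parent strain without NS1 is used as positive control.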
# SARS PLpro yeast – SARS-CoV PLP inhibition in yeast; S. cerevisiae expressing SARS-CoV PLpro, growth rescue; control for the full effect not named in the record; Potency, µM (titrated, usually from 32.9 µM), without a hit: top-dose activity, positive = growth rescue; 0.19% of 330,000 active; AID 485353; active means well fitted rising curve with a large enough effect; inconclusive means small, poorly fitted or top-dose-only effect; inactive means no such curve, though single readings can be large or run the other way; further: 0% is about no effect; nearly all actives have a fitted effect of over 55% in size; growth read by luminescence after 48 h
# LASV entry inh – inhibitors of Lassa virus binding or cell entry. Lassa virus pseudotype entry inhibition, cell reporter; control for the full effect not named in the record. Potency, µM (doses to about 37.9 µM), for inactives: at the top dose activity change, negative = inhibition, most hits filed as inhibitors. 1.2% of 300,000 active. AID 540256; active means well fitted inhibition curve with a large enough effect; inconclusive means small, poorly fitted or top-dose-only effect, or effect the other way; inactive means flat fitted curve, though single readings scatter; tested in HEK293 cells; further: on the % scale 0 is the no-effect control and ±100 the full control effect; nearly all actives have a fitted effect of over 50% in size; luciferase read-out
# Cruzain inh noDet – cruzain (T. cruzi) inhibition without detergent; purified cruzain, Z-FR-AMC fluorescence, no detergent; 2.3% of 200,000 active; AID 1476; Potency, µM, inactives show max response, negative = inhibition, most hits filed as inhibitors; P25779;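 further: plate controls were enzyme without inhibitor for no effect and buffer without enzyme for full effect; nearly all actives have a fitted effect of over 40% in size; top concentration of the series not given in the record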
# Target sequence (P25779 123-467 limits assumed): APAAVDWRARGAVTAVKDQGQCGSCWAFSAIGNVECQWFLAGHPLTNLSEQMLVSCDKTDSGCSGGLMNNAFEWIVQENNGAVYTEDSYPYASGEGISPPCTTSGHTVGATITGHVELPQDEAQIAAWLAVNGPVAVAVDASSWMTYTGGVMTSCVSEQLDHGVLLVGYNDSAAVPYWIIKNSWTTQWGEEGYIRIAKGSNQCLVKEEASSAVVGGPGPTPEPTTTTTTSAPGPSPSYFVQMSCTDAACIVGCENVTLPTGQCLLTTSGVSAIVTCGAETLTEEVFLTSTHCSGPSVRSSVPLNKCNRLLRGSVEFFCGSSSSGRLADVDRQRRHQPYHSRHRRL
#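 Detergent-free condition (0.00005% Triton X-100) in acetate buffer pH 5.5 with DTT. 1.5 nM enzyme and compound were pre-mixed 15 min, then 2 uM Z-FR-AMC substrate added; reaction progress from fluorescence change between first and third reads (60 s).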
# Cruzain Triton – blocks cruzain activity in presence of Triton detergent. purified cruzain, Z-FR-AMC fluorescence, 0.01% Triton. Potency, µM, without a hit: max response, negative = inhibition, hits mostly inhibitors. 0.43% of 200,000 active;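 further: plate controls were neutral wells for no effect and buffer without enzyme for full effect; nearly all actives have a fitted effect of over 40% in size; top concentration of the series not given in the record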
#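 Read-out: AMC fluorescence (360 nm excitation, 450 nm emission), four reads over 2 min, first-to-third difference used. Conditions: cruzain 1.5 nM, Z-FR-AMC 2 uM, pH 5.5 acetate, 5 mM DTT, 0.01% Triton X-100.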
# The depositor's hits bear a star; ? = inconclusive; nt = no result given; & = joins results of further samples; [ ] = another dose, or the depositor's remark. Unless noted, the call rests on the fitted dose curve; in most records, active means well fitted curve in the direction sought with a large enough effect; inconclusive means small, poorly fitted or top-dose-only effect, or another doubt; inactive means no such curve, though single readings can be large; an effect the other way counts as inactive or inconclusive. Potency means the concentration at half of the fitted maximal effect. Hits appear at their usual frequency. Share with any hit: about 4.7%.
SMILES,MARV entry inh,2A StopGo,RE007 growth inh,NS1 function inh,SARS PLpro yeast,LASV entry inh,Cruzain inh noDet,Cruzain Triton
COc1ccc(NC(=S)NCC2CCCO2)c(C)c1 (stereo not given),?,19%,35%,23%,25%,10%,2%,0.0%
O=C(/C=C/c1ccccc1)NCCSCc1ccccc1,11%,21%,-18%,-62%,-29%,4%,7%,-1.4%
O=C1NC(=O)C(Cc2ccccc2)(c2ccccc2)N1 (stereo not given),-3%[46.1 µM],5%,-14%,nt,nt,28%[46.1 µM],nt,nt
COC(=O)/C=C1/S/C(=N/N=C/c2ccc(N(C)C)cc2)NC1=O,-1%,nt,nt,-1%,?,nt,-2%,-3.0%
CC(NC(=S)NC(=O)c1ccccc1Br)c1ccccc1 (stereo not given),nt,-15%,-13%,8%,20%,nt,nt,nt
CN(CC(=O)Nc1cccc(F)c1)C(=O)c1ccc2c(c1)OCCO2,?,67%[activator],-10%,nt,-1%,6%,nt,nt
O=C(O)c1cccc(Oc2ccc(C(=O)O)c([N+](=O)[O-])c2)c1,29%,-3%,-14%,nt,nt,4%[46.1 µM],nt,nt
COc1ccc(NC(=O)c2cc(-c3ccccc3)oc2C)cc1,-18%,-16%,28%,-4%,10%,0%,-4%,-6.6%
CCCCCn1c(=O)c(Cc2ccccc2)c(O)c2ccccc21,-6%,3%,-3%,2%,-7%,12%,-5%,-11%
CCS(=O)(=O)c1cc([N+](=O)[O-])c(Sc2ccccc2N)s1,2%,?,-14%,7%,-1%,-2%,nt,nt
O=C1c2cc([N+](=O)[O-])ccc2-c2ncccc21,nt,-21%,-18%,3%,2%,nt,nt,nt
O=C(COc1ccc(Cl)cc1)N(c1ccc(Cl)cc1)C1CN2CCC1CC2 (stereo not given),?,0%,14%,1%,-2%,?,nt,nt
c1ccc2c(-c3nn4nnnc4c4ccccc34)cccc2c1,29%,-25%,15%,-9%,-3%,-16%,?,-0.8%
O=C1OCCC1Sc1nnc(-c2ccc(Br)cc2)o1 (stereo not given),?,?,2%,0%,-7%,?,-7%,-1.3%
CCOc1ccc(/C=C2/C(=N)N3OC(C)=CC3=NC2=O)cc1OC,-1%,-12%,-15%,nt,-1%,-4%,nt,nt

# A section from the list above, for reference:
SMILES,MARV entry inh,2A StopGo,RE007 growth inh,NS1 function inh,SARS PLpro yeast,LASV entry inh,Cruzain inh noDet,Cruzain Triton
COc1ccc(NC(=S)NCC2CCCO2)c(C)c1 (stereo not given),?,19%,35%,23%,25%,10%,2%,0.0%
O=C(/C=C/c1ccccc1)NCCSCc1ccccc1,11%,21%,-18%,-62%,-29%,4%,7%,-1.4%
O=C1NC(=O)C(Cc2ccccc2)(c2ccccc2)N1 (stereo not given),-3%[46.1 µM],5%,-14%,nt,nt,28%[46.1 µM],nt,nt
COC(=O)/C=C1/S/C(=N/N=C/c2ccc(N(C)C)cc2)NC1=O,-1%,nt,nt,-1%,?,nt,-2%,-3.0%
CC(NC(=S)NC(=O)c1ccccc1Br)c1ccccc1 (stereo not given),nt,-15%,-13%,8%,20%,nt,nt,nt

# Further compounds follow:
SMILES,MARV entry inh,2A StopGo,RE007 growth inh,NS1 function inh,SARS PLpro yeast,LASV entry inh,Cruzain inh noDet,Cruzain Triton
CC(C)(C)OC(=O)N1CCC(c2c(C(=O)N3CCN(c4ccccn4)CC3)cnn2-c2ccc(F)cc2F)CC1,nt,-14%,nt,nt,nt,?,-9%,-1.9%
Cc1csc2nc(COC(=O)CNC(=O)c3ccccc3)cc(=O)n12,nt,7%,nt,nt,nt,-13%[46.1 µM],2%,-7.5%
CC(C)Oc1cccc(C(=O)Nc2ccc(NC(=O)c3ccco3)cc2)c1,-12%,0%,24%,1%,-1%,-14%,-8%,2.2%
COCc1cc(C)nc(OCC(=O)N/N=C/c2ccc(-c3cc([N+](=O)[O-])ccc3C)o2)c1C#N,16%,-12%,5%,2%,-1%,5%,?,-6.9%
COc1ccccc1/C=C/C(=O)NC(=S)N1CCN(C)CC1,3%[46.1 µM],5%,-9%,8%,-5%,-5%[46.1 µM],nt,nt
O=C(Nc1ccc(Cl)c(Cl)c1)c1ccc(Cn2cc(Cl)cn2)cc1,1%,24%,?,-20%,-91%,nt,?,-11%
CCc1ccc(CNc2ccc3c(c2)ncn3CC)cc1,?,0%,-28%,-5%,-5%,?,nt,nt
S=C(NCCc1cccc(Cl)c1)NC1CCCCC1,?,19%,-10%,-89%,-4%,8%[46.1 µM],nt,nt
CCOC(=O)N1CCN(c2nc3c(C)cccn3c(=O)c2C=O)CC1,0%[46.1 µM],-4%,-6%,-5%,-2%,-4%,nt,nt
COC(=O)c1ccc2c(=O)n(-c3ccccc3)c(=S)[nH]c2c1,?,?,-2%,nt,4%,?,nt,nt
CCC(C)n1c(=N)c(C#N)cc2c(=O)n3ccccc3nc21 (stereo not given),7%,-10%,-3%,-1%,-7%,8%,?,?
O=C(CSc1nnc(NC(=O)C2CC(=O)N(c3ccc(F)cc3)C2)s1)NC1CCCC1 (stereo not given),5%,-3%,-9%,27%,6%,0%,nt,nt
O=C(NCCc1ccccc1)C1CCCN1S(=O)(=O)c1ccccc1 (stereo not given),-1%[46.1 µM],0%,4%,nt,3%,7%[46.1 µM],nt,nt
CC(C)C(=O)N1CCC(c2nc(-c3ccc(S(=O)(=O)N4CCCC4)cc3)no2)CC1,-25%,3%,-6%,11%,3%,?,?,0.4%
CC(C)=CCC(C)(C)CNC(=O)NC1CCCCC1,-15%[46.1 µM],-8%,-1%,-22%,-8%,?,-3%,-0.8%
CC(=O)c1cc(-c2ccccc2)n(CC(=O)N2CCN(C3CCCC3)CC2)c1C,3%,-18%,-8%,-3%,0%,3%,1%,0.5%
CCN(CC)c1ccc(NC(=O)COc2ccc(N(C)S(=O)(=O)c3cccs3)cc2)cc1,-13%,?,-11%,nt,4%,?,nt,nt
CCC(Oc1ccccc1F)C(=O)N1CCC(c2nc3ccccc3s2)CC1 (stereo not given),?,25µM*,nt,nt,nt,-4%[46.1 µM],?,-9.9%
CC(C)[C@@H]1NC(=O)c2cc([N+](=O)[O-])cc(I)c2NCCCC[C@@H](C(=O)NC(CC(=O)O)C(N)=O)NC(=O)[C@H](CO)NC1=O (stereo not given in full),-1%,nt,nt,-9%,4%,11%,13%,-6.5%
N#Cc1ccccc1Sc1ccccc1C(=O)OCC(=O)N1CCN(C(=O)c2ccco2)CC1,6%&6%,-21%,14%,1%,9%,?,?,0.7%
CN1CCC(N(C)C(=O)c2ccccc2F)CC1,nt,-10%,-6%,-12%,2%,nt,nt,nt
COCCCNC(=O)CCc1c(C)nc2c(c(C)nn2-c2ccc(C)cc2)c1C,nt,-21%,15%,-1%,0%,nt,nt,nt
Cc1sc2ncnc(SCC(=O)NC(=O)c3cccn3C)c2c1C,?,?,13%,nt,1%,?,nt,nt
COC(=O)c1cc2oc(C)cc2n1CC(=O)Nc1cc(Cl)ccc1OC,?,-15%,nt,nt,nt,nt,18%,-1.7%
O=C(N1CCN(c2ncccn2)CC1)C12CC3CC(CC(C3)C1)C2,9%[46.1 µM],-12%,-18%,nt,nt,21%[46.1 µM],nt,nt
O=C(c1ccc2nc[nH]c2c1)N1CCN(S(=O)(=O)c2cccc(Cl)c2)CC1,1%,?,-2%,nt,nt,7%,nt,nt
COc1cc(C(c2c(O)cc(C)[nH]c2=O)c2c(O)cc(C)[nH]c2=O)ccc1O,11%[46.1 µM],-5%,1%,4%,0%,1%,nt,nt
COC(=O)[C@H](CCSC)NC(=O)NC1CCN(Cc2ccccc2)CC1,4%,-2%,-6%,-6%,0%,6%,-2%,1.0%
COc1ccc(OC)c(/C=C/C(=O)Nc2ccc3c(c2)CCC3)c1,?,22%,-4%,-30%,-30%,-17%,-24%,-9.5%
O=C(CSc1nc2ccccc2o1)Nc1nc(-c2ccccc2)c(-c2ccccc2)s1,-30%,?,3%,3%,15%,?,13µM*,-0.5%
CSCC[C@H](NC(=O)[C@@H]1CSC2c3ccccc3C(=O)N21)C(=O)N1CCC[C@H]1CO (stereo not given in full),nt,-21%,13%,-8%,0%,nt,nt,nt
CCOCCCNC(=O)C(=O)NCCCOCC,3%,-9%,1%,7%,-3%,12%,11%,-2.6%
COc1ccc(-c2ccc(CCC(=O)O)n2-c2ccccc2C(F)(F)F)cc1,-6%[46.1 µM],0%,nt,nt,nt,-22%[46.1 µM],13%,-20%
Nc1ccc(S(=O)(=O)Nc2nccc(/C=C/c3ccc(Br)s3)n2)cc1,-7%[46.1 µM],11%,-19%,nt,0%,7%,nt,nt
Cc1sc2ncnc(SCC(=O)c3ccc4c(c3)OCCO4)c2c1-c1ccccc1,-15%,?,9%,-9%,-4%,-10%,32µM*,-2.2%
O=C(/C=C/c1ccc(Br)o1)OCc1nc2ccsc2c(=O)[nH]1,-21%,-23%,1%,nt,-9%,6%,nt,nt
C=C(C)Cn1c(CCCNC(=O)CCC)nc2ccccc21,14%,-10%,-7%,-2%,3%,-2%,-2%,3.0%
Cc1[nH]nc2c1C1(CCOCC1)C(C#N)=C(N)O2,15%,-2%,7%,6%,-1%,4%,-2%,2.0%
Cc1ccc(C2C(C(N)=S)=C(N)OC3=C2C(=O)CC(C)(C)C3)cc1 (stereo not given),25%,-7%,0%,17%,0%,0%,-2%,-0.5%
O=C(CCc1c[nH]c2ccccc12)NCC(=O)Nc1ccc(F)c(F)c1F,7%[46.1 µM],13%,-4%,nt,0%,-5%,nt,nt
COc1ccc2cnnc(SCC(=O)Nc3ccccc3)c2c1OC,-3%,5%,-8%,9%,3%,1%,-19%,-2.8%
Cn1c(=O)oc2cc(S(=O)(=O)N3CCCc4ccccc43)ccc21,nt,-25%,13%,-37%,6%,nt,2%,-3.0%
CCCCOCCCNC(=O)c1ccc(OC)cc1,-27%,-4%,-11%,-1%,-1%,15%,-1%,1.9%

# Compound activity from PubChem BioAssay.
